Bioassay records: PubChem BioAssay, Broad Institute
FGF22 binding – binders of recombinant human FGF22 by thermal shift; Q9HCT0; SYPRO orange fluorescence; percent of sucrose octasulfate shift, DMSO zero; calls only at 9.99 µM; hit rate 1.5% among 340,000; AID 651658;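 active means melting point raised past a set limit in the mean and every replicate; three in four hits are not shown here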
Target sequence (Q9HCT0 whole entry, looked up): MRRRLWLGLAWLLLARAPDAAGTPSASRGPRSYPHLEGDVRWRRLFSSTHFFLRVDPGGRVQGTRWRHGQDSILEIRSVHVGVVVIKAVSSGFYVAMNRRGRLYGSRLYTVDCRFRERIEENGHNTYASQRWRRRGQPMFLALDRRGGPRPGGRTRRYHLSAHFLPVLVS
MLL AF4-AF9 inh – blocks AF4 peptide binding to human AF9 | AlphaScreen, biotin-AF4 peptide binding to FLAG-AF9 | P42568 | hit rate 0.47% among 350,000 | inhibition, % at 10 µM;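 active means every replicate reaching a set inhibition limit, whatever the replicate mean, cut at about 25% in these data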;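 further: 0% = plate neutral control median and 100% = total signal loss; the record names both 10 and 1 µM as test concentration; the first replicate is given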
Target sequence (P42568 whole entry, looked up): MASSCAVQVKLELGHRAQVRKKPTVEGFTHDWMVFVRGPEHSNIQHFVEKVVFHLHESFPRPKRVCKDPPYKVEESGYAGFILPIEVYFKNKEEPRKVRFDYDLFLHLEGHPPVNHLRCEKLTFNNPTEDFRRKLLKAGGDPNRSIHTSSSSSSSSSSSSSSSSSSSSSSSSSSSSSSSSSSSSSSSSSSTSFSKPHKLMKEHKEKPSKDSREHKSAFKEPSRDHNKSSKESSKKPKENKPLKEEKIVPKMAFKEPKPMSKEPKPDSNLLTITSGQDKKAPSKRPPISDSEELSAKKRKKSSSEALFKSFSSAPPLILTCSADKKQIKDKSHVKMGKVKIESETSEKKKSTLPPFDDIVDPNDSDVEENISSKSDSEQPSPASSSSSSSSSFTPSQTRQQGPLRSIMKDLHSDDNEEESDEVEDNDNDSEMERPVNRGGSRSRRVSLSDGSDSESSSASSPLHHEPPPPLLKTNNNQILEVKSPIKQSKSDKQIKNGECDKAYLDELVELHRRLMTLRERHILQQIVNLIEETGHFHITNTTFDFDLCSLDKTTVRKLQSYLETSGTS
rRNA inh HTS – selective bacterial rRNA inhibition in E. coli | E. coli WT GFP vs humanized-ribosome RFP mutants, fluorescence, 24 h; active compounds read low; DMSO median 0, no signal -100 | GFP signal change (wild-type ribosome), % (no concentration beside the values) | hit rate 1.6% among 350,000 | AID 720706;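 active means significant combined selectivity score with lowered wild-type GFP, culture density cut under 30%, mutant RFP and density less affected; inactive means any of these conditions unmet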; further: one replicate is shown; some compounds called inactive have numbers as strong as hits
rRNA inh HTS OD600 – recorded beside rRNA inh HTS, whose call it bears; OD600 change, %; measured here: OD600 growth;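 optical density of the mix in the first replicate; 0 = DMSO median and -100 = no signal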
rRNA inh HTS RFP – recorded beside rRNA inh HTS, whose call it bears; RFP signal change, %; measured here: RFP humanized mutant strains;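 first replicate; 0 = DMSO median and -100 = no signal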
* = called active by the depositor; & = joins results of further samples. Some of the compounds tested. The share of hits here may be higher or lower than overall.

`COc1ccccc1NC(=O)N1C[C@@H](C)[C@H](OC)CN(C)C(=O)c2cc(NC(=O)c3cnccn3)ccc2OC[C@H]1C` gave FGF22 binding inactive, MLL AF4-AF9 inh -1.7, rRNA inh HTS 0, rRNA inh HTS OD600 -2 and rRNA inh HTS RFP -0.3.
Screening CN1CCN(C(=O)C[C@H]2CC[C@@H]3[C@H](COc4ccc(NC(=O)C5CCOCC5)cc4C(=O)N3C)O2)CC1 returned FGF22 binding inactive, MLL AF4-AF9 inh -0.5, rRNA inh HTS -1, rRNA inh HTS OD600 -3 and rRNA inh HTS RFP 0.6.
Screening O=C(c1ccc(Cl)c(S(=O)(=O)N2CCCC2)c1)N1CCN(Cc2ccccc2)CC1 returned FGF22 binding inactive, MLL AF4-AF9 inh -0.4, rRNA inh HTS -9, rRNA inh HTS OD600 -9 and rRNA inh HTS RFP 5.7.
COC1=C(NCc2ccc3c(c2)OCO3)C(=O)C(OC)=C(NCc2ccc3c(c2)OCO3)C1=O was read as FGF22 binding inactive, MLL AF4-AF9 inh 0.3, rRNA inh HTS 9, rRNA inh HTS OD600 7 and rRNA inh HTS RFP -1.2.
`C[C@H](CO)N1C[C@H](C)[C@H](CN(C)S(=O)(=O)c2ccc(F)cc2)Oc2ccc(NC(=O)Nc3ccc(F)cc3)cc2CC1=O` gave FGF22 binding inactive, MLL AF4-AF9 inh 4.9, rRNA inh HTS -4, rRNA inh HTS OD600 -9 and rRNA inh HTS RFP 6.4.
`C/C=C/c1ccc2c(c1)O[C@H](CN(C)C(=O)Cc1ccccc1)[C@H](C)CN([C@@H](C)CO)S2(=O)=O` gave FGF22 binding inactive, MLL AF4-AF9 inh 1.9, rRNA inh HTS -5, rRNA inh HTS OD600 -9 and rRNA inh HTS RFP 0.8.
Screening Cc1cc(C)c2c(CN(Cc3ccccc3)Cc3ccccc3)cc(=O)oc2c1 returned FGF22 binding inactive, MLL AF4-AF9 inh -0.5, rRNA inh HTS 3, rRNA inh HTS OD600 1 and rRNA inh HTS RFP -2.3.
`CC(C)CC#Cc1ccc2c(c1)O[C@@H](CN(C)Cc1ccccn1)[C@H](C)CN([C@@H](C)CO)S2(=O)=O` gave FGF22 binding inactive, MLL AF4-AF9 inh 5.0, rRNA inh HTS -11, rRNA inh HTS OD600 -28 and rRNA inh HTS RFP 13.
C[C@@H]1CN([C@@H](C)CO)C(=O)c2cc(NS(=O)(=O)c3ccc(F)cc3)ccc2O[C@H]1CN(C)C(=O)Nc1ccc(F)cc1 was read as FGF22 binding inactive, MLL AF4-AF9 inh -4.1, rRNA inh HTS -3, rRNA inh HTS OD600 1 and rRNA inh HTS RFP -3.5.
Screening Cc1noc(C)c1NC(=O)N(C)C[C@@H]1OCCCC[C@@H](C)Oc2ccc(NC(=O)Nc3ccc(C(F)(F)F)cc3)cc2C(=O)N([C@H](C)CO)C[C@@H]1C returned FGF22 binding inactive, MLL AF4-AF9 inh 0.2, rRNA inh HTS 1, rRNA inh HTS OD600 6 and rRNA inh HTS RFP -1.1.
CNC[C@H]1Oc2cc(C#CCN(C)C)ccc2S(=O)(=O)N([C@H](C)CO)C[C@@H]1C was read as FGF22 binding inactive, MLL AF4-AF9 inh 16, rRNA inh HTS 3, rRNA inh HTS OD600 13 and rRNA inh HTS RFP 2.8.
`C[C@H](CO)N1C[C@H](C)[C@@H](CN(C)C(=O)Cc2ccncc2)Oc2cc(C3=CCCC3)ccc2S1(=O)=O` gave FGF22 binding inactive, MLL AF4-AF9 inh -0.1, rRNA inh HTS 0, rRNA inh HTS OD600 3 and rRNA inh HTS RFP 0.0.
COc1cccc(CNC(=O)[C@@H]2CCCN2C(=O)[C@@H]2CCCN2C(=O)c2cccc(Cl)c2)c1 was read as FGF22 binding inactive, MLL AF4-AF9 inh -2.9, rRNA inh HTS -5, rRNA inh HTS OD600 4 and rRNA inh HTS RFP -5.6.
`CSc1ncnc2c1ncn2CCCN1CCN(C(=O)C2CC2)CC1` gave FGF22 binding inactive, MLL AF4-AF9 inh -3.2, rRNA inh HTS 9, rRNA inh HTS OD600 12 and rRNA inh HTS RFP 0.5.
`COc1ccc(C2CC(=O)Nc3cc(OC)c(OC)cc32)cc1` (configuration not stated) gave FGF22 binding inactive, MLL AF4-AF9 inh 1.6, rRNA inh HTS -5, rRNA inh HTS OD600 -7 and rRNA inh HTS RFP -6.3.
Screening CS(=O)(=O)Nc1ccc2c(c1)[C@H]1C[C@H](CC(=O)NCc3ccc(Oc4ccccc4)cc3)O[C@@H](CO)[C@H]1O2 returned FGF22 binding inactive, MLL AF4-AF9 inh -0.5, rRNA inh HTS 0, rRNA inh HTS OD600 -13 and rRNA inh HTS RFP -2.3.
For COc1ccc(S(=O)(=O)N(C)C[C@H]2Oc3ccc(NC(=O)CCC(F)(F)F)cc3C(=O)N([C@@H](C)CO)C[C@H]2C)cc1 the results were FGF22 binding inactive, MLL AF4-AF9 inh -0.1, rRNA inh HTS 5, rRNA inh HTS OD600 0 and rRNA inh HTS RFP -1.1.
For C[C@H](CO)N1C[C@H](C)[C@H](CN(C)C)Oc2cc(C#CC3CCCCC3)ccc2S1(=O)=O the results were FGF22 binding inactive, MLL AF4-AF9 inh 11, rRNA inh HTS 3, rRNA inh HTS OD600 -29 and rRNA inh HTS RFP 40.
Screening COCC#Cc1cnc2c(c1)C(=O)N([C@H](C)CO)C[C@@H](C)[C@H](CN(C)C(=O)Nc1cc(F)ccc1F)O2 returned FGF22 binding inactive, MLL AF4-AF9 inh -8.9, rRNA inh HTS 6, rRNA inh HTS OD600 5 and rRNA inh HTS RFP 1.2.
For C[C@H](CO)N1C[C@H](C)[C@@H](CN(C)C(=O)Nc2ccc(N3CCN(C)CC3)cc2)OCc2cn(nn2)CCCC1=O the results were FGF22 binding inactive, MLL AF4-AF9 inh 9.7&10, rRNA inh HTS -4&10, rRNA inh HTS OD600 7&14 and rRNA inh HTS RFP -1.0&0.0.
Screening C[C@H](CO)N1C[C@H](C)[C@H](CN(C)C(=O)CN2CCOCC2)Oc2ncc(C#C[C@@H](C)O)cc2C1=O returned FGF22 binding inactive, MLL AF4-AF9 inh -4.5, rRNA inh HTS 4, rRNA inh HTS OD600 6 and rRNA inh HTS RFP -2.1.
Screening CCCN(C)C[C@@H]1Oc2cc(-c3ccc(F)cc3)ccc2S(=O)(=O)N([C@H](C)CO)C[C@@H]1C returned FGF22 binding inactive, MLL AF4-AF9 inh 1.6, rRNA inh HTS 1, rRNA inh HTS OD600 -3 and rRNA inh HTS RFP 21.
For C[C@H](CO)N1C[C@H](C)[C@H](CN(C)C(=O)c2cccnc2)Oc2ncc(C3=CCCC3)cc2C1=O the results were FGF22 binding inactive, MLL AF4-AF9 inh -1.6, rRNA inh HTS 1, rRNA inh HTS OD600 4 and rRNA inh HTS RFP -2.6.
`Cc1ccc(S(=O)(=O)c2cc3c(=O)n4cccc(C)c4nc3n(CCc3ccccc3)c2=N)cc1C` gave FGF22 binding inactive, MLL AF4-AF9 inh 1.2, rRNA inh HTS 1, rRNA inh HTS OD600 11 and rRNA inh HTS RFP 0.0.
For Cc1ccc(CN2CC(N3CCCCC3)CS2(=O)=O)cc1 (configuration not stated) the results were FGF22 binding inactive, MLL AF4-AF9 inh -0.3, rRNA inh HTS -1, rRNA inh HTS OD600 -1 and rRNA inh HTS RFP 2.4.
COc1ccc2c3c([nH]c2c1)[C@H](CO)N(C(=O)CN1CCOCC1)CC31CCN(C)CC1 was read as FGF22 binding inactive, MLL AF4-AF9 inh 1.3, rRNA inh HTS 2, rRNA inh HTS OD600 4 and rRNA inh HTS RFP -0.1.
Cc1noc(C)c1S(=O)(=O)Nc1ccc2c(c1)C(=O)N([C@@H](C)CO)C[C@@H](C)[C@@H](CN(C)C(=O)NC(C)C)OCCCC[C@@H](C)O2 was read as FGF22 binding inactive, MLL AF4-AF9 inh 0.6, rRNA inh HTS 2, rRNA inh HTS OD600 -3 and rRNA inh HTS RFP -1.0.
`COCCN1Cc2cc(C(=O)OC)c3c(c2C1=O)c1cc(OC)ccc1n3S(=O)(=O)c1ccc(F)cc1` gave FGF22 binding inactive, MLL AF4-AF9 inh 3.4, rRNA inh HTS 4, rRNA inh HTS OD600 -2 and rRNA inh HTS RFP 3.8.
For O=S(=O)(N[C@H]1CC[C@H](CCn2cc(-c3ccccc3F)nn2)O[C@@H]1CO)c1ccc(Cl)cc1 the results were FGF22 binding inactive, MLL AF4-AF9 inh 1.4, rRNA inh HTS 2, rRNA inh HTS OD600 -19 and rRNA inh HTS RFP 17.
`CO[C@H]1CN(C)C(=O)c2ccc(NC(=O)Nc3cccc(F)c3)cc2OC[C@H](C)NC[C@@H]1C` gave FGF22 binding inactive, MLL AF4-AF9 inh 0.4, rRNA inh HTS -2, rRNA inh HTS OD600 -1 and rRNA inh HTS RFP 0.6.
`COc1ccc(CN(C)C[C@@H]2Oc3ccc(NC(=O)Cc4ccccc4)cc3CC(=O)N([C@@H](C)CO)C[C@@H]2C)cc1` gave FGF22 binding inactive, MLL AF4-AF9 inh -10, rRNA inh HTS -5, rRNA inh HTS OD600 -8 and rRNA inh HTS RFP 3.6.
`COc1cc(/C=C/c2ccccc2)cc(OC)c1` gave FGF22 binding inactive, MLL AF4-AF9 inh 7.5, rRNA inh HTS -3, rRNA inh HTS OD600 -16 and rRNA inh HTS RFP 1.0.
Screening C[C@@H]1CN([C@@H](C)CO)C(=O)c2cc(C#CCN(C)C)cnc2O[C@H]1CN(C)C(=O)NC1CCCCC1 returned FGF22 binding inactive, MLL AF4-AF9 inh -7.5, rRNA inh HTS 5, rRNA inh HTS OD600 16 and rRNA inh HTS RFP -1.4.
`C[C@@H]1CN([C@@H](C)CO)C(=O)c2cc(NC(=O)c3ccccc3)ccc2O[C@@H](C)CCCCO[C@H]1CN(C)C(=O)Nc1ccccc1` gave FGF22 binding inactive, MLL AF4-AF9 inh 0.7, rRNA inh HTS -2, rRNA inh HTS OD600 1 and rRNA inh HTS RFP 1.0.
CS(=O)(=O)N1CCCCN2[C@H](C1)[C@H](c1ccc(C#Cc3ccccn3)cc1)[C@@H]2CO was read as FGF22 binding inactive, MLL AF4-AF9 inh 32*, rRNA inh HTS 6, rRNA inh HTS OD600 17 and rRNA inh HTS RFP -1.6.
Screening CN(Nc1cccc(Cl)c1)c1cccc(Cl)c1 returned FGF22 binding inactive, MLL AF4-AF9 inh 1.4, rRNA inh HTS -50, rRNA inh HTS OD600 -82 and rRNA inh HTS RFP -18.
Screening C[C@@H]1CN([C@H](C)CO)C(=O)c2cc(NC(=O)CCC(F)(F)F)ccc2O[C@@H]1CN(C)CC1CC1 returned FGF22 binding inactive, MLL AF4-AF9 inh -7.1, rRNA inh HTS 4, rRNA inh HTS OD600 7 and rRNA inh HTS RFP -0.8.
COc1ccc(NC(=O)N(C)C[C@H]2Oc3ccc(N(C)C)cc3CC(=O)N([C@H](C)CO)C[C@@H]2C)cc1 was read as FGF22 binding inactive, MLL AF4-AF9 inh 1.7, rRNA inh HTS -3, rRNA inh HTS OD600 7 and rRNA inh HTS RFP 0.6.
`C[C@@H]1CN([C@H](C)CO)C(=O)Cc2cc(NC(=O)c3ccncc3)ccc2O[C@@H]1CN(C)Cc1ccc(C(=O)Nc2ccccc2N)cc1` gave FGF22 binding inactive, MLL AF4-AF9 inh 0.4, rRNA inh HTS -6, rRNA inh HTS OD600 -6 and rRNA inh HTS RFP -0.9.
Screening O=C(Cc1cccnc1)N1CC2(C1)[C@H](c1ccccc1)[C@@H](CO)N2C(=O)C1CCCCC1 returned FGF22 binding inactive, MLL AF4-AF9 inh -0.8, rRNA inh HTS 1, rRNA inh HTS OD600 2 and rRNA inh HTS RFP -1.8.
Screening Cc1noc(C)c1S(=O)(=O)N(C)C[C@@H]1OCCCC[C@@H](C)Oc2ccc(NC(=O)c3ccccc3)cc2C(=O)N([C@@H](C)CO)C[C@@H]1C returned FGF22 binding inactive, MLL AF4-AF9 inh -0.2, rRNA inh HTS -2, rRNA inh HTS OD600 -25 and rRNA inh HTS RFP -1.3.

4 compounds already listed, sorted by SMILES length, falling:
`C[C@@H]1CN([C@H](C)CO)C(=O)Cc2cc(NC(=O)c3ccncc3)ccc2O[C@@H]1CN(C)Cc1ccc(C(=O)Nc2ccccc2N)cc1` gave FGF22 binding inactive, MLL AF4-AF9 inh 0.4, rRNA inh HTS -6, rRNA inh HTS OD600 -6 and rRNA inh HTS RFP -0.9.
COc1ccc(NC(=O)N(C)C[C@H]2Oc3ccc(N(C)C)cc3CC(=O)N([C@H](C)CO)C[C@@H]2C)cc1 was read as FGF22 binding inactive, MLL AF4-AF9 inh 1.7, rRNA inh HTS -3, rRNA inh HTS OD600 7 and rRNA inh HTS RFP 0.6.
Screening O=C(Cc1cccnc1)N1CC2(C1)[C@H](c1ccccc1)[C@@H](CO)N2C(=O)C1CCCCC1 returned FGF22 binding inactive, MLL AF4-AF9 inh -0.8, rRNA inh HTS 1, rRNA inh HTS OD600 2 and rRNA inh HTS RFP -1.8.
Screening CN(Nc1cccc(Cl)c1)c1cccc(Cl)c1 returned FGF22 binding inactive, MLL AF4-AF9 inh 1.4, rRNA inh HTS -50, rRNA inh HTS OD600 -82 and rRNA inh HTS RFP -18.
